Source: PubChem BioAssay (ICCB-Longwood Screening Facility, Harvard Medical School)
BasE inh: BasE siderophore biosynthesis inhibition. inhibition, % (concentration not given with the values). purified BasE, fluorescence polarization binding displacement. 84,000 compounds, 0.1% hits;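 active means both replicates above 25% with normal brightness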;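 further: 0% = negative plate control signal and 100% = positive plate control signal; stock transfer was 100 nL into about 30 µL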
LANA-nucl inh: inhibitors of KSHV LANA binding to nucleosomes; AID 720717; FITC-LANA1-23 / chicken nucleosome fluorescence polarization; stronger effect = lower value; 51,000 compounds, 0.3% hits; z-score (concentration not given with the values);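 active means both repeat wells score below -2 in polarization z-score versus plate sample wells, excluding overly bright wells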;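 further: 100 nL library stock added to about 30 µL; numbers are from one replicate; some results filed as inactive read as strong as hits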
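System – purified chicken nucleosomes with FITC-labelled LANA N-terminal peptide (1-23) · Amount – 240 nM purified chicken nucleosomes (480 nM peptide binding sites), final · Also added – 50 nM FITC-LANA1-23 probe · Medium – TEN-BT buffer, pH 7.5 · Incubation – compound with peptide–nucleosome mix 10–45 min at room temperature · Detection – fluorescence polarization, ex 480 nm, em 535 nm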
* hit, by the source's call; . = not tested or not shown; & = joins results of further samples.

SMILES	BasE inh	LANA-nucl inh
COC(=O)c1cc(C)nc(Sc2n[nH]c(-c3cc(Cl)cc(Cl)c3)n2)n1	-1.0	-1.3
O=C(CSc1nnc(-c2cccc(F)c2)o1)N1c2ccccc2Sc2ccccc21	0.1	-0.17
CC(NC(=O)COc1ccccc1)C(=O)N1CCN(S(=O)(=O)c2cccs2)CC1 (stereo not given)	-0.3	.
COC(=O)c1ccc2c(c1)nc1n2CCCC1	-4.6	0.67
O=c1ccnc(SCc2ccccc2Cl)[nH]1	0.0	.
O=C(OCc1ccccc1)C1CCN(S(=O)(=O)c2cccs2)CC1	-0.5	.
C=CCNC(=O)CSc1nc2ccccc2[nH]1	-4.4	.
Cc1ccc(NCc2nnc(SCC(=O)O)n2-c2cccc(Cl)c2)cc1	-0.4	-0.68
COc1ccccc1CNCC(=O)Nc1cc(C)on1	1.6	0.3
CCCN1C(=O)c2ccc(C(=O)NC3=NCCS3)cc2C1=O	-3.2	3.1
CCN(CC(=O)NC1CCS(=O)(=O)C1)C(=O)C1c2ccccc2Oc2ccccc21 (stereo not given)	1.2	.
CN(CCOc1ccccc1)C(=O)c1ccc2c(c1)OCO2	2.3	.
CNC(=O)NC(=O)CN1CC(=O)Nc2ccccc21	-0.1	.
Cc1ccc(CNC(=O)C2CC(=O)OC23CCCC3)c(C)c1 (stereo not given)	-0.2	-0.82
COc1ccc2[nH]c(=O)c(CN(Cc3ccco3)C(=S)NC3CCCCC3)cc2c1	2.0	0.17
O=C(C1Cc2ccccc2C1)N1CCOCC1	-0.3	.
CC(C)NC(=O)CN1C(=O)c2ccccc2S1(=O)=O	1.1	0.022
CC(C)(C)SCC(=O)Nc1nc(-c2cccs2)c(-c2cccs2)s1	-4.1	.
CC(C)n1nccc1NC(=O)c1cc2c(s1)CCCCC2	-0.5	.
CC(=O)Nc1ccc(S(=O)(=O)N[C@@H](C)C(=O)NC2CCCc3ccccc32)cc1 (stereo not given in full)	-0.1	.
COc1ccc2oc(=O)c(C(=O)NCCCn3ccnc3)cc2c1	-0.1	0.32
CCc1ccccc1N1CCN(C(=O)c2ccc(Cl)cc2)CC1	0.6	0.52
CSC1=NCC(=O)N1Cc1cccc(Cl)c1	-0.5	.
CN(C)C(=S)Nc1cc(C(F)(F)F)cc(C(F)(F)F)c1	-0.5	.
CCOc1ccc(CCNC(=O)C2CCCN(S(=O)(=O)N3CCCCC3)C2)cc1OCC (stereo not given)	0.5	0.76
The list continues:
SMILES	BasE inh	LANA-nucl inh
Cc1ccc2[nH]c3c(N(C)C)ncnc3c2c1	2.5	.
CC(C)(C)OC(=O)N/N=C\c1cc2c(cc1Br)OCO2	-1.7	-1.2
COC(=O)c1ccc(COc2c(-c3ccco3)oc3ccccc3c2=O)cc1	-2.0	0.52
O=C1C=CC(=O)C(c2ccc(C(=O)O)cc2)=C1	4.5	0.19
O=C(OCc1ccccc1)Oc1cncc(C(=O)ON2C(=O)CCC2=O)c1	-1.2	1.2
Cc1ccccc1NC(=O)Cn1nnc(-c2ccc(CN3CCC(C)CC3)cc2)n1	1.6	0.73
CC(C)N(C(=O)CSc1nnc(NC(=O)c2ccco2)s1)C(C)C	-0.8	1.1
O=C(CCCc1ccccc1)N1CCN(c2ccccn2)CC1	-0.8	-1.7
N#Cc1cnc(SCC(=O)N(C2=CCCCC2)C2CC2)nc1N	-1.8	.
O=C(O)C1CCCN(c2ccccn2)C1 (stereo not given)	2.5	0.35
Cc1cnc(C(=O)Nc2nn[nH]n2)cn1	3.7	.
O=C(CCS(=O)(=O)c1cc2c3c(c1)CCN3C(=O)CC2)Nc1ccccc1	-0.1	0.38
Cc1nc2c(ncn2-c2ccccc2)c(=O)n1NC(=O)CN1CCN(C)CC1	2.4	0.048
O=C(OCn1nnc2ccccc2c1=O)C1CSC2(c3ccc(F)cc3)CCC(=O)N12 (stereo not given)	3.7	.
Cc1ccc(-c2c(C(=O)O)c3ccccc3[nH]c2=O)cc1	.	0.084
c1ccc(NC2=Nc3ccccc3CC2)cc1	-3.6	-0.24
O=C(OCc1ccc(Cl)cc1)c1ccccc1NCc1ccco1	-0.4	.
CCOC(=O)C(C)Sc1ncnc2c1nnn2Cc1ccc(Cl)cc1 (stereo not given)	-11	1.1
O=C(CCNC(=O)NC12CC3CC(CC(C3)C1)C2)Nc1ccc(-n2cnnn2)cc1	2.0	.
CC1CN(C(=O)Cn2nc(-c3cccc(-n4cccc4)c3)oc2=O)CC(C)O1 (stereo not given)	-1.3	0.43
CCOc1ccc(NC(=O)C2c3ccccc3Oc3ccccc32)cc1	2.7	.
Cc1nn(-c2ccccc2)c2c1CC(C#N)(c1ccccn1)C1CCCN21 (stereo not given)	1.2	.
CC(=O)N1CCOc2ccc(S(=O)(=O)N3CCOc4ccccc43)cc21	-2.3	0.96
COc1ccc(S(=O)(=O)Nc2ccc3[nH]ncc3c2)cc1Br	6.3	.
Fc1ccc(CN2CCN3CCCC3C2C2CCCCC2)cc1F (stereo not given)	-2.7	0.71
(further entries)
SMILES	BasE inh	LANA-nucl inh
Cn1c(O)c(C=NC23CC4CC(CC(C4)C2)C3)c(=O)n(C)c1=O	0.4	.
O=C(OCN1C(=O)c2ccccc2C1=O)c1cccc(S(=O)(=O)N2CCCC2)c1	2.6	.
C=CCOc1ccc(C(=O)O)cc1OC	0.7	0.41
O=c1c2[nH]c3ccc(Cl)cc3c2ncn1CCCN1CCCC1	-5.3	-0.56
O=C(Nc1cccc(C(F)(F)F)c1)C1CCCO1 (stereo not given)	2.5	0.12
O=C(O)c1cccc(Nc2nc(-c3ccccn3)cs2)c1	3.0	-0.29
CC(SCc1nc2sc3c(c2c(=O)[nH]1)CCCC3)C(=O)Nc1nccs1 (stereo not given)	-1.2	.
CC[N+](CC)(CC)CCOc1cccc(OCC[N+](CC)(CC)CC)c1OCC[N+](CC)(CC)CC	-1.5	-0.15&0.17&-1.2
CC(NC(=S)NCCN1CCCCC1)c1ccccc1 (stereo not given)	0.9	0.074
CCc1ccccc1NC(=O)CN(C)Cc1nc(N)nc(Nc2ccccc2C)n1	-0.2	.
O=C(CSc1ccc(Br)cc1)c1ccco1	-0.6	.
Cc1[nH]c2ccccc2c(=O)c1CNCc1ccccc1	-2.6	0.79
CC1C(=O)NC(=O)N1c1ccc(Cl)cc1 (stereo not given)	1.5	.
CCSc1nnc(SCC(=O)c2ccc(OC)cc2OC)s1	-5.0	.
CC(C)COc1ccc(C(=S)N2CCCCC2)cc1	-1.5	.
Nc1cc(N)nc(SCC(=O)N2CCCC2c2ccc3c(c2)OCCCO3)n1 (stereo not given)	1.3	.
CCC(=O)N1c2ccccc2-c2nnc(SC)nc2OC1c1ccccc1 (stereo not given)	-1.8	.
CC(C)(C)C(=O)Nc1nc2ccccc2s1	1.5	.
O=C(COc1ccccc1)n1nc(-c2ccc(Cl)cc2)nc1NCc1ccco1	-3.5	0.84
CCOc1ccc(OCC(=O)OCc2ncc(-c3ccccc3)o2)cc1	7.3	.
COc1ccc(OC)c(NC(=O)Cc2coc3ccc(C)cc23)c1	0.7	-0.4
CC(=O)N1N=C(COc2ccc3c(c2)OCO3)OC1c1ccc(C)cc1 (stereo not given)	2.3	-1.4
CC(C)c1ccc(NC(=S)N(Cc2ccccc2)C(C)C)cc1	0.5	.
O=C1CCC(C(=O)Nc2ccc(S(=O)(=O)NCc3ccco3)cc2)=NN1	0.3	.
C=CCSc1ncc(Cl)c(C(=O)Nc2ccc(S(N)(=O)=O)cc2)n1	-0.4	0.62
New compounds follow:
SMILES	BasE inh	LANA-nucl inh
CCn1c(C)cc(/C=C2\SC(=Nc3cc(Cl)ccc3C)NC2=O)c1C	-1.4	0.53
O=C(Cc1ccccc1)NN1CCCCC1	4.0	.
CCN(CC)S(=O)(=O)c1ccc(-c2cn3cccnc3n2)cc1	0.8	-0.69
CC(C)OC(=O)/C(C#N)=C\c1cccn1C	2.5	0.008
Cc1cc(=O)oc(C)c1C(=O)NCc1c(F)cc(F)cc1F	1.3	-1.5
O=S1(=O)CC=C(S(=O)(=O)c2ccccc2)C1	2.7	-0.92
CC(C)(C)c1ccc(OC(=O)CCC(=O)O)cc1	5.2	0.15
O=S(=O)(c1ccc(-c2nc(-c3ccc(Cl)cc3)cs2)cc1)N1CCOCC1	.	2.3
OC(c1ccccc1)c1cccc(C(F)(F)F)c1 (stereo not given)	0.7	-0.36
O=C(CN(Cc1ccco1)Cc1cccs1)c1ccc[nH]1	2.5	.
O=C(CSc1ncnc2[nH]ncc12)CSc1ncnc2[nH]ncc12	8.8	.
CN1CCN(C(c2cccs2)N2CCN(C)CC2)CC1	1.1	0.58
Cc1cccc(-n2c(SC3CCOC3=O)nnc2-c2c[nH]c3ccccc23)c1 (stereo not given)	-3.2	.
COc1ccc(C(C(=O)NCc2cccs2)N(Cc2ccco2)C(=O)Cn2nnc(-c3cccs3)n2)cc1 (stereo not given)	3.9	-0.39
CCOC(=O)c1ccc(NC(=O)Cn2cnc3c(nnn3-c3cccc(Cl)c3)c2=O)cc1	1.5	2.5
O=C1N=c2ccccc2=C1c1sc(Nc2nccs2)nc1O	-7.7	.
Cn1c(=O)c2c([nH]c(=O)n2C)n(C)c1=O	-3.3	-0.0095
CC1CCN(C(=S)Nc2ccccc2)CC1	2.0	0.93
O=C1/C(=C/c2ccc(O)cc2)SC(=S)N1CCc1ccccc1	-23	.
CCc1ccc(C(=O)Nc2ccc(N3CCCC3)cc2)cc1	0.3	0.044
CC(C)(Oc1ccc(Cl)cc1)C(=O)Oc1ccc(-c2nnco2)cc1	-3.1	.
COc1cc2c(cc1OC)CN(Cn1cnc3ccccc31)CC2	3.2	.
O=C(/C=C/c1ccccc1F)CN1C(=O)c2ccccc2C1=O	2.9	.
O=C(Nc1c2c(nn1-c1ccccc1)CSC2)C1CC(=O)N(c2ccccc2)C1 (stereo not given)	1.3	-0.53
O=C(N[C@@H](Cc1ccccc1)C(=O)Nc1nccs1)c1cccs1	0.3	.
The list continues:
SMILES	BasE inh	LANA-nucl inh
O=C1N(CN2CCCCC2)c2ccc(Br)cc2C12OCCO2	-0.8	-0.42
CCOC(=O)Cn1c(=O)oc2cc(S(=O)(=O)N3CC(C)CC(C)C3)ccc21 (stereo not given)	-0.8	0.17
Cc1csc(=O)n1CC(=O)NC1CCCCCC1	6.5	.
CCc1ccc(NC(=O)NCc2c(-n3cccc3)sc3c2CCCC3)cc1	0.8	0.11
CC(C)(C)c1cc(CN2CCCC2)cc(C(C)(C)C)c1O	3.0	0.38
COc1ccccc1N1CCN(C(=O)/C=C/c2c(Cl)nc3sccn23)CC1	-1.1	.
Cc1cc(NC(=O)CN2CCCCC2)nc2c1c(=O)oc1ccccc12	2.5	-0.15
CCN(CC)C(=O)c1oc2ccccc2c1NC(=O)C(C)C	-0.4	.
O=C1CSC(c2cccs2)N1c1ccccc1 (stereo not given)	0.7	.
NC(=O)C1CCN(C(=O)c2cc(-c3ccccc3)on2)CC1	-0.3	0.47
OC1(c2ccccc2)CCN(Cc2ccccc2)CC1	1.2	0.18
CCN(CC)S(=O)(=O)c1ccc(Sc2nc(C)cs2)nc1	3.3	.
CCN(CC(=O)NC1CCS(=O)(=O)C1)C(=O)Cc1ccccc1F (stereo not given)	2.4	.
CC(Nc1nc(-c2ccccc2)c2cc(Br)ccc2n1)C(=O)O (stereo not given)	2.4	.
CCC(=O)Oc1ccc2c(C(F)(F)F)cc(=O)oc2c1C	2.8	0.079
CCN1CCN(CCCNC(=O)c2oc3ccc(S(=O)(=O)N4CCOCC4)cc3c2C)CC1	1.0	-0.16
CCOC(=O)c1ccc(-c2ccc(-c3nc4cc(C(=O)OCC)ccc4n3CC)o2)cc1	-5.7	.
CC(NC(=O)Nc1ccc(S(N)(=O)=O)cc1)(C(F)(F)F)C(F)(F)F	-0.5	0.8
Cc1c(C(=O)O)oc2c1C(O)CC(C)(C)C2 (stereo not given)	-1.1	0.83
C=CCOC(=O)COc1ccc2c3c(c(=O)oc2c1)CCC3	4.0	-0.37
C(=N\Nc1nc2ccccc2[nH]1)/C1CCCCC1	-0.5	.
N#Cc1ccc(NC(=O)COC(=O)CSc2ccccc2)cc1	-1.3	.

Only part of the results is shown; rates above refer to the full screens.
